Compound activity: PubChem, several laboratories
Fam108B inh: Fam108B inhibition, counter-screen for RBBP9 inhibitors; recombinant Fam108B, FP-Rh probe fluorescence polarization; inhibition, % at 9.51 µM; 0.33% of 300,000 active;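 active = inhibition above the screen mean inhibition plus 3 SD, computed separately per campaign, cut at about 18% in these data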;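 note: inhibitors lower polarization as less probe binds the enzyme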
BCLXL inh: Bcl-xL (human) inhibition; Q07817; GST-Bcl-xL / FITC-Bim BH3 peptide fluorescence polarization; inhibition, % at 10.9 µM; 0.7% of 320,000 active; AID 2129;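 active = inhibition above the mean of all tested compounds plus 3 SD, cutoff set per campaign, cut at about 30% in these data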;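 note: 0% = DMSO wells and 100% = unlabeled Bim-BH3 peptide competitor; inhibitors lower millipolarization by displacing the labeled peptide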
Target sequence (Q07817 whole entry, looked up): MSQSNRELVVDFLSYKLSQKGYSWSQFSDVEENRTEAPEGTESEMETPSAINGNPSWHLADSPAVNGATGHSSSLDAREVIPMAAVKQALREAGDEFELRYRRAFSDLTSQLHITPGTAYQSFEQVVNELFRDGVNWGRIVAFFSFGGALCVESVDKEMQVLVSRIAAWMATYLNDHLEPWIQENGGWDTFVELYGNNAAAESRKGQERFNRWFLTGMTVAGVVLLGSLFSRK
TPT1 inh: inhibitors of Candida albicans tRNA 2'-phosphotransferase TPT1; recombinant caTPT1, FP RNA substrate dephosphorylation; inhibition, % at 5 µM; 0.81% of 300,000 active; AID 1962;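 active = inhibition above the mean of all tested compounds plus 3 SD, set per screening campaign, cut at about 24% in these data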;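 note: plate controls were DMSO alone for no effect and ferristatin control at 100 nM for full effect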
PME-1 inh: blocks human protein phosphatase methylesterase 1; Q9Y570; 0.53% of 320,000 active; recombinant PME-1, FP-Rh probe fluorescence polarization; AID 2130; inhibition, % at 5.9 µM;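 active = inhibition above the campaign mean of all compounds plus 3 SD, cut at about 26% in these data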;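 note: competitive labeling of PME-1 active site by serine hydrolase directed probe; 0% = PME-1 with DMSO and 100% = wells lacking PME-1 enzyme; inhibitors block probe labeling so polarization falls and inhibition rises; many of its hits are not listed in these tables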
Target sequence (Q9Y570 whole entry, looked up): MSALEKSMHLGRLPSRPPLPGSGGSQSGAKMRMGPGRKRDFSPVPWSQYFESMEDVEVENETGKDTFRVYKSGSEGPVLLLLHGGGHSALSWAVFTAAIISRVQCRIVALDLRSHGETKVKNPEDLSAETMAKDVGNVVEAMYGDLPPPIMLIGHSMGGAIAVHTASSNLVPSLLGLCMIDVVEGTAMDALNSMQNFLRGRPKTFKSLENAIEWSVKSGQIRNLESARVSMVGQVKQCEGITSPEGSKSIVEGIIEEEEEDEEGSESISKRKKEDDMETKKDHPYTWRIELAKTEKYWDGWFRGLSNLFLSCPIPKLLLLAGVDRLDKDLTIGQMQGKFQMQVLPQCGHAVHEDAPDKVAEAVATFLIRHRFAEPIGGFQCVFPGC
MCL1-BIM inh: inhibitors of human MCL1 binding to BIM-BH3 peptide; Q07820; GST-MCL1 / FITC-Bim-BH3 fluorescence polarization; inhibition, % at 10.9 µM; 0.68% of 320,000 active; AID 2057;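 active = inhibition above the mean inhibition of all tested compounds plus 3 SD, set per campaign, cut at about 40% in these data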;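 note: 0% = DMSO wells and 100% = unlabeled Bim-BH3 peptide control; higher means more loss of mP so more displacement of Bim peptide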
PAD4 inh: inhibitors of human PAD4 | Q9UM07 | recombinant PAD4, RCA probe fluorescence polarization | inhibition, % at 6.36 µM | 0.41% of 330,000 active | AID 485272;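 active = percent inhibition above a cutoff equal to the mean of all tested compounds plus 3 SD, cut at about 15% in these data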;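 note: 0% = PAD4 with RCA probe and DMSO and 100% = probe without PAD4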
GLD-1 TGE inh: GLD-1-TGE RNA interaction inhibition (C. elegans). Q17339. purified GLD-1 + fluorescein TGE RNA, fluorescence polarization. inhibition, % at 5.96 µM. 0.44% of 320,000 active. AID 2280;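 active = percent inhibition above a per-plate cutoff, the plate mean of test compounds plus 3 SD, cut at about 30% in these data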;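 note: 0% = DMSO wells with GLD-1 and probe and 100% = wells lacking GLD-1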
Target sequence (Q17339 whole entry, looked up): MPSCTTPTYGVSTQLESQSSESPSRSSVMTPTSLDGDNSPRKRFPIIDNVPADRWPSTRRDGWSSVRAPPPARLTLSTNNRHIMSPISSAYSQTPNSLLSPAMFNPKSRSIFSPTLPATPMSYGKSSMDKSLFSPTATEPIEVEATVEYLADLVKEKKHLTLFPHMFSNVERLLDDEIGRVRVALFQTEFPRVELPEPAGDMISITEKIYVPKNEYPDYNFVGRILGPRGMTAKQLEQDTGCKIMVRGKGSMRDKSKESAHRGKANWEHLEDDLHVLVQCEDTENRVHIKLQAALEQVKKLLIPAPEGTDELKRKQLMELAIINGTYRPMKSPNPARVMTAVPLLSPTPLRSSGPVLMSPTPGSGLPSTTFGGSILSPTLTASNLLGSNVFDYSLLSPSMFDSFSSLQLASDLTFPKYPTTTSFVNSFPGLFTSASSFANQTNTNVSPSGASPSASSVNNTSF
MEX-5 binding: C. elegans MEX-5 TCR-2 RNA binding activity; Q9XUB2; MEX-5/FITC-TCR2 RNA binding, fluorescence polarization; hits give low values; activity score (negative = inhibition of binding), % at 10 µM; 0.38% of 300,000 active; AID 1832;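 active = inhibition past about -25% in most replicates, and total fluorescence under double the plate's negative control median, limit read from the data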;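 note: 0% = DMSO and -100% = 5 µM competing unlabeled TCR2 RNA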
* marks the source's active call; other numbers are inactive results; . = not tested or not shown.

SMILES	Fam108B inh	BCLXL inh	TPT1 inh	PME-1 inh	MCL1-BIM inh	PAD4 inh	GLD-1 TGE inh	MEX-5 binding
CSCC[C@H](NC(=O)OC(C)(C)C)C(=O)N1CCC(C(=O)N[C@@H](C)C(=O)O)CC1	-4	4	-3	5	-1	-1	3	-0.5
COC(=O)c1cccc(NC(=O)c2ccc(S(=O)(=O)N3CCN(C)CC3)cc2)c1	1	0	1	3	-2	0	0	0.2
O=C(N/N=C/c1ccc([N+](=O)[O-])s1)c1ccccc1	3	-6	0	-1	-3	-10	2	-4.5
COc1ccc(OCc2nnc(SCc3ccc(C(=O)O)cc3)o2)cc1	-3	2	-6	-1	-5	-2	5	0.4
CCOc1ccc(NC(=O)CSc2nc3c(c(=O)n2C)SC(C)C3)cc1 (stereo unspecified)	4	8	-1	3	6	4	-1	.
Cc1cccc(NS(=O)(=O)c2ccc3c(c2)NC(=O)CO3)c1C	0	10	1	4	10	-1	7	-0.9
Cc1ccc(CCNS(=O)(=O)c2ccc3c(c2)NC(=O)C(C)C(=O)N3)cc1 (stereo unspecified)	1	18	-4	-7	-5	0	15	-1.8
Cc1ccc(NS(=O)(=O)c2ccc3c(c2)NC(=O)CCS3)c(Br)c1	4	9	-1	8	-1	-3	4	-0.5
C=CCOc1ccc(/C(CC)=N/O)c(OC)c1	6	1	-4	-1	3	0	-1	0.5
OC1CN=C2Sc3ccccc3N2C1 (stereo unspecified)	4	2	-5	-6	5	3	12	0.1
O=C(COc1ccc(F)cc1)c1c(O)cc(O)cc1O	1	0	0	-1	-1	-1	7	-0.4
O=C(Nc1ccnn1C1CCN(Cc2ccccc2OC(F)F)CC1)c1cccc(F)c1	0	10	1	3	3	-4	-3	1.4
COc1ccc(CNc2cccc(F)c2)cc1Br	10	7	0	-7	-2	-2	-2	-1.3
CCC(Sc1nc(C)cc(=O)[nH]1)C(=O)Nc1nnc(C)s1 (stereo unspecified)	-5	6	-5	-4	3	3	-5	-1.0
Cc1nnc(NC(=O)CSc2n[nH]c(-c3ccccc3)n2)s1	2	1	-1	-4	-5	-5	0	-0.3

Structural class, those above with an aryl methoxy group (three)
SMILES	Fam108B inh	BCLXL inh	TPT1 inh	PME-1 inh	MCL1-BIM inh	PAD4 inh	GLD-1 TGE inh	MEX-5 binding
COc1ccc(OCc2nnc(SCc3ccc(C(=O)O)cc3)o2)cc1	-3	2	-6	-1	-5	-2	5	0.4
C=CCOc1ccc(/C(CC)=N/O)c(OC)c1	6	1	-4	-1	3	0	-1	0.5
COc1ccc(CNc2cccc(F)c2)cc1Br	10	7	0	-7	-2	-2	-2	-1.3

Remaining list, next part:
SMILES	Fam108B inh	BCLXL inh	TPT1 inh	PME-1 inh	MCL1-BIM inh	PAD4 inh	GLD-1 TGE inh	MEX-5 binding
CC(NC(=O)c1ccc(Cl)cc1)C(=O)NC1=NCCS1 (stereo unspecified)	2	2	1	1	2	5	-2	-0.3
COc1ccc(-c2nc(C#N)c(NCc3ccco3)o2)cc1	4	3	0	6	0	-5	3	1.1
Cc1cc(N2CCCC2=O)c(N)cc1N	3	2	0	-12	8	-2	10	1.9
COc1ccc(NC(=O)CSc2nnc(Cc3ccccc3)c(=O)n2N)cc1OC	0	2	-1	7	-1	-1	1	-4.6
O=C(NCc1cccs1)C1CCCN(c2nc3ccccc3o2)C1 (stereo unspecified)	4	1	1	1	-1	-3	5	-0.4
N#CC(c1ccccc1)N(CCCCl)C(=O)c1ccccc1 (stereo unspecified)	3	1	-3	-4	5	-1	7	0.7
COC(=O)c1cccc(S(=O)(=O)N2CCC(NC(=O)NC34CC5CC(CC(C5)C3)C4)CC2)c1	-3	3	0	1	4	1	3	2.6
Nc1c(C(O)(C(F)(F)F)C(F)(F)F)cc(C(O)(C(F)(F)F)C(F)(F)F)c2ccccc12	-4	-3	4	4	-8	-1	10	0.4
Cc1cc(NC(=O)CSc2nc3c(c(=O)n2-c2ccccc2)SC(C)C3)no1 (stereo unspecified)	7	1	-1	-1	-4	-2	-1	1.4
CCCn1nc(C(=O)Nc2cc(C(=O)OC)ccc2C)c2ccccc2c1=O	0	3	-3	2	5	-2	3	0.0
Cc1cc(C)cc(NS(=O)(=O)c2cc3[nH]c(=O)c(=O)[nH]c3cc2C)c1	-5	1	-2	1	2	-2	4	0.1
CCc1c(C)sc(NC(=O)c2cccs2)c1C(=O)OC(C)C	-7	3	0	-1	-4	-1	-8	4.4
CCOc1cc(NC(=O)CCl)c(OCC)cc1NC(=O)CCl	3	4	-3	-8	2	0	1	3.7
Cc1ccc(C)c(OCc2cc(C(=O)NC3CCOC(C)(C)C3)no2)c1 (stereo unspecified)	0	5	0	1	0	1	7	2.5
CC(C)=CC(=O)Nc1nnc(-c2cccnc2)s1	0	-2	0	-1	-3	-1	-7	-2.4

Already shown: entries from further up.
SMILES	Fam108B inh	BCLXL inh	TPT1 inh	PME-1 inh	MCL1-BIM inh	PAD4 inh	GLD-1 TGE inh	MEX-5 binding
N#CC(c1ccccc1)N(CCCCl)C(=O)c1ccccc1 (stereo unspecified)	3	1	-3	-4	5	-1	7	0.7
COC(=O)c1cccc(S(=O)(=O)N2CCC(NC(=O)NC34CC5CC(CC(C5)C3)C4)CC2)c1	-3	3	0	1	4	1	3	2.6
Nc1c(C(O)(C(F)(F)F)C(F)(F)F)cc(C(O)(C(F)(F)F)C(F)(F)F)c2ccccc12	-4	-3	4	4	-8	-1	10	0.4
Cc1cc(NC(=O)CSc2nc3c(c(=O)n2-c2ccccc2)SC(C)C3)no1 (stereo unspecified)	7	1	-1	-1	-4	-2	-1	1.4
CCCn1nc(C(=O)Nc2cc(C(=O)OC)ccc2C)c2ccccc2c1=O	0	3	-3	2	5	-2	3	0.0
Cc1cc(C)cc(NS(=O)(=O)c2cc3[nH]c(=O)c(=O)[nH]c3cc2C)c1	-5	1	-2	1	2	-2	4	0.1

Following part
SMILES	Fam108B inh	BCLXL inh	TPT1 inh	PME-1 inh	MCL1-BIM inh	PAD4 inh	GLD-1 TGE inh	MEX-5 binding
CCc1cc(C(=O)NNC(=O)CCl)sc1C	5	0	0	0	0	2	7	-1.2
CCOc1cc(O)c(-c2[nH]ncc2-c2nc(C)cs2)cc1CC	6	1	2	8	7	-2	5	1.9
O=C(NCc1cccs1)c1cnc2sccn2c1=O	0	7	-4	1	2	-4	8	0.0
COc1cc([N+](=O)[O-])c(OC)cc1SCc1n[nH]c(=S)n1-c1ccc(C)cc1	0	-4	-5	-4	0	0	-4	-0.1
O=C(O)c1ccc(Nc2nc(-c3cccnc3)cs2)cc1O	3	15	0	-9	18	-2	5	-5.6
Cc1cccc(NS(=O)(=O)c2cc(C(=O)OCC(=O)Nc3cc(C)on3)ccc2C)c1	-2	1	-1	4	-3	0	-2	0.0
CCOc1ccc(-c2cc(C(=O)O)c3ccccc3n2)c(OCC)c1	-5	9	2	-1	5	5	6	-0.4
O=C1CC(=O)Nc2cc(S(=O)(=O)Nc3ccc(Cl)c(C(F)(F)F)c3)ccc2N1	-7	3	0	-1	6	2	1	-1.2
Cc1ccc(C(=O)N/N=C\c2ccc([N+](=O)[O-])s2)cn1	2	2	0	8	6	-7	2	-9.6
COc1ccc2cc(C(c3nnnn3C3CCCC3)N3CCc4ccccc4C3)c(=O)[nH]c2c1 (stereo unspecified)	-2	12	-6	-7	9	-5	9	-9.5
COc1ccc(CCn2c(C)cc(C(=O)CCl)c2C)cc1OC	3	12	-2	3	5	1	0	-1.7
CCOC(=O)CSc1nnc(NC(=O)CN2CCN(C=O)CC2)s1	7	4	0	-4	10	-4	-3	-4.1
COc1ccc(CC(=O)OCN2C(=O)c3ccccc3C2=O)cc1	1	2	1	4	7	-2	7	1.0
O=C(CCS(=O)(=O)c1ccccc1)Nc1nc2c(s1)COc1ccccc1-2	-8	3	2	0	3	-1	-5	-2.4
CC(=O)N1CCc2cc(S(=O)(=O)NCCC3=CCCCC3)ccc21	0	4	-4	2	0	-1	11	-0.3
CC/C(=N\NC(=O)c1ccc(-c2ccccc2)cc1)C12CC3CC(CC(C3)C1)C2	1	-6	1	-1	-1	2	1	-4.7
CCCCNS(=O)(=O)c1ccc2nc(SCC(=O)Nc3sccc3C#N)[nH]c2c1	-6	-3	11	-2	-14	-12	-10	-6.4
COc1ccc(-c2cc3nc(CCl)[nH]c(=O)c3s2)cc1	-4	9	1	-8	8	2	-2	-1.6
CC1(C)CC(NC(=O)c2cc(COc3cccc(C(F)(F)F)c3)on2)CCO1 (stereo unspecified)	0	2	0	0	1	-1	-1	0.7
O=C(COC(=O)c1ccc(NS(=O)(=O)c2ccc3c(c2)OCCO3)cc1)NC1CCS(=O)(=O)C1 (stereo unspecified)	3	1	1	1	-1	-2	0	0.3
CCc1ccc(NS(=O)(=O)c2ccc3[nH]cc(C(=O)N(C)Cc4ccco4)c(=O)c3c2)cc1	-2	11	1	5	4	-3	1	1.2
CCCn1cc(CN2CCC(n3nccc3NC(=O)c3ccccc3)CC2)c(C)n1	-3	10	0	5	5	-2	7	-1.7
Cc1c(Cl)cccc1NC(=O)CSc1nc2ncc(Cl)cc2[nH]1	-3	3	-2	-5	4	0	4	0.7
COc1cccc(C2[C@H](C)C3(CCN2C)OCCO3)c1 (stereo partly specified)	-3	3	1	1	9	-2	-3	-1.5
O=C(NC(=C(Cl)Cl)S(=O)(=O)c1ccc(Cl)cc1)c1ccccc1	-3	3	1	-3	-3	14	-5	1.1
COC(=O)c1nc(NC(=O)C(C)(C)C)n[nH]1	1	5	1	5	-3	2	9	-0.8
COc1ccc(Cl)cc1N1C(=O)/C(=C\c2sccc2C)N=C1SCC(=O)NC1CC1	1	0	-3	1	3	3	-2	0.9
O=C(Nc1ccc2c(c1)OCCO2)c1cc(-c2ccccc2)nc2ccccc12	-15	4	-4	-18	6	-2	4	1.7
CS(=O)(=O)c1ccc(Cl)c(NC(=O)CCl)c1	2	4	1	-13	3	5	1	-0.1
CS(=O)(=O)c1ccc2nnn(OCC(=O)Nc3ccc(Br)cc3Br)c2c1	-4	2	-2	-3	0	2	0	-3.2
COc1cccc(Nc2nc(N)nc(CCl)n2)c1	1	1	1	-1	-4	2	-2	-1.8
COc1cccc(C(=O)CSc2nnc(COc3cccc4cccnc34)o2)c1	-3	-1	1	0	-4	5	1	2.5
CCOC(=O)c1oc2ccccc2c1NC(=O)CCl	0	8	-8	-3	5	5	2	0.4
COc1ccc(/C=C/C(=O)Nc2sc3c(c2C(=O)NCc2cccnc2)CCCC3)cc1	-6	6	-3	-13	5	2	3	-3.0
Cn1c(N)c(C(=O)CCl)c(=O)n(Cc2ccccc2)c1=O	1	-6	1	1	-4	-4	0	-2.7
CC(=O)c1cc(CN2CCC(n3nccc3NC(=O)c3ccccc3Cl)CC2)cs1	2	4	0	3	5	3	0	-0.9
CSC(=NS(=O)(=O)c1ccccc1)SC	-5	2	0	3	0	3	-3	-2.8
Cc1nnc(NC(=O)CSc2ccccn2)s1	-1	7	-1	-3	-3	1	4	-1.8
Cc1csc(SCC(=O)c2ccc(S(=O)(=O)N3CCOCC3)cc2)n1	4	0	13	0	-8	-5	-9	-0.5
CCCNC(=O)c1c(N)n(-c2cc(OC)cc(OC)c2)c2nc3ccccc3nc12	-3	5	1	6	-1	0	5	0.2
C=CCSc1nnc(NC(=O)CSc2nc(CCC)cc(=O)[nH]2)s1	4	2	1	-5	8	-3	0	0.7
Nc1nc(SCC(=O)c2ccc(F)cc2)n[nH]1	2	1	0	-3	10	0	-5	-6.0
Cc1ccc(C)c(NC(=S)NNC(=S)Nc2ccc(C(C)C)cc2)c1	13	18	-5	22	9	2	4	0.1
CCOC(=O)CSc1nc(N)cc(=O)[nH]1	1	5	-5	-1	6	2	1	-0.9
CCOC(=O)c1sc(=S)n2c1[nH]c(=O)c1ccc(C(=O)OC)cc12	4	6	-2	7	12	-3	1	1.8

A portion of the library. The share of hits here may be higher or lower than overall.
